DUX4 txn inh: blocks DUX4-driven transcriptional activation | activity change, negative = inhibition, % (concentration not given with the values) | 37,000 compounds, 0.8% hits | AID 1224904 | 293T-iDUX4 ZSCAN4-Gaussia luciferase reporter, 24 h; hits give low values;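 active = -10% or lower and over 25 points stronger than a control reporter; inconclusive = -10% or lower with a smaller gap; inactive = above -10%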;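 also: 0% = median of neutral control wells and -100% = median of positive control wells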
DUX4 txn inh difference: recorded beside DUX4 txn inh, whose call it bears; Gaussia minus Italica difference, %; measured here: selective DUX4 reporter inhibition;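 worked out from the two reporters; negative = selective loss of the DUX4 reporter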
DUX4 txn inh control: further read-out of DUX4 txn inh, marked with its call; activity change, negative = inhibition, %; measured here: Italica tet-on control reporter;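 0 = neutral control and -100 = positive control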
* hit, by the source's call; ? = inconclusive; . = no result given.

Sequence of screens – DUX4 txn inh difference	DUX4 txn inh control	DUX4 txn inh
> COc1ccc(NC(=O)N[C@@H]2CC[C@@H](CCNC(=O)c3ccccc3F)O[C@@H]2CO)cc1
 : 4.8	2.4	7.2
> Cc1noc(C)c1NC(=O)Nc1ccc2c(c1)C(=O)N(C)[C@@H]1CC[C@H](CC(=O)N[C@@H]3CCN(Cc4ccccc4)C3)O[C@H]1CO2
 : -3.4	-3.6	-7.0
> O=C(C[C@H]1CC[C@H]2[C@@H](COC[C@H](O)CN2C(=O)Nc2ccc(Cl)c(Cl)c2)O1)NCc1ccncc1
 : -7.2	2.9	-4.3
> C[C@@H]1CCCCO[C@H](CN(C)C(=O)C2CCCCC2)[C@H](C)CN([C@H](C)CO)C(=O)c2cc(NS(=O)(=O)c3ccccc3)ccc2O1
 : -4.1	4.6	0.4
> COc1ccc2c3c(n(C)c2c1)[C@@H](CO)N(CC1CC1)CC31CCN(C(=O)c2cccc(F)c2)CC1
 : -2.4	-6.9	-9.3
> O=C(Cc1ccncc1)NCC[C@H]1CC[C@@H](NC(=O)Nc2cccc(F)c2)[C@H](CO)O1
 : 8.2	1.9	10.1
> COc1cccc(CNC(=O)C[C@H]2CC[C@H](NC(C)=O)[C@@H](CO)O2)c1
 : 6.6	1.3	7.9
> C[C@H](CO)N1C[C@H](C)[C@H](CN(C)S(=O)(=O)c2ccc(Cl)cc2)Oc2ccc(NC(=O)CCC(F)(F)F)cc2CC1=O
 : 2.3	-0.3	2.1
> O=C(O)[C@H]1[C@H](CO)[C@H]2Cn3c(ccc(-c4cncnc4)c3=O)[C@H]2N1C(=O)C1CCC1
 : 5.5	-0.6	5.0
> C[C@@H]1CCCCO[C@@H](CN(C)C(=O)Cc2ccccc2)[C@H](C)CN([C@H](C)CO)C(=O)c2cc(NC(=O)c3ccncc3)ccc2O1
 : 4.1	1.2	5.4
> COC(=O)N(C)C[C@@H]1OCc2ccccc2-c2c(n(C)c3ccccc23)C(=O)N([C@@H](C)CO)C[C@@H]1C
 : 5.0	-0.2	4.8
> COc1ccc2c3c(n(C)c2c1)[C@H](CO)N(Cc1ccncc1)CC31CCN(C(=O)NC(C)C)CC1
 : 5.0	3.2	8.2
> C[C@H](O)C#Cc1ccc2c(c1)O[C@@H](CN(C)Cc1ccc(-c3ccccc3)cc1)[C@@H](C)CN([C@@H](C)CO)S2(=O)=O
 : -2.9	2.7	-0.1
> COc1ccc(S(=O)(=O)N(C)C[C@H]2Oc3ccc(NC(=O)Cc4cn(C)c5ccccc45)cc3C(=O)N([C@H](C)CO)C[C@H]2C)cc1
 : -5.7	1.3	-4.4
> O=C(NC[C@H]1[C@H](c2ccccc2)[C@H](CO)N1CC1CCCC1)c1ccncc1
 : 0.0	-1.9	-1.9
> CCNC(=O)C[C@@H]1CC[C@@H]2[C@@H](COc3ccc(NC(=O)C4CCCCC4)cc3C(=O)N2C)O1
 : -5.1	-0.7	-5.8
> O=C(C1CC1)N1CC2(C1)[C@H](c1ccccc1)[C@@H](CO)N2C(=O)CC1CC1
 : 5.7	-1.9	3.7
> C[C@H](CO)N1C[C@H](C)[C@H](CN(C)Cc2ccc(C(F)(F)F)cc2)Oc2ccc(NC(=O)CCN3CCOCC3)cc2C1=O
 : -6.4	5.0	-1.4
> CCCNC(=O)N1[C@H](C#N)[C@H](c2ccc(C#Cc3cccc(F)c3)cc2)[C@H]1CO
 : -5.1	1.0	-4.1
> C/C=C/c1ccc([C@H]2[C@@H](C#N)N(c3ncc(CC)s3)[C@@H]2CO)cc1
 : 0.8	-2.9	-2.1
> N#C[C@H]1[C@@H](c2ccccc2)[C@@H](CO)N1C(=O)c1ccc2c(c1)OCO2
 : -3.4	-1.6	-5.0
> CCC(=O)N1[C@@H]2c3ccc(C4=CCCCC4)c(=O)n3C[C@@H]2[C@@H](CO)[C@@H]1C(=O)NC1CCC1
 : 7.4	-3.8	3.6
> CCCC(=O)N1CC2(CCN(S(=O)(=O)CC)CC2)c2c(n(C)c3cc(OC)ccc23)[C@H]1CO
 : 18.0	10.0	28.0
> CC(C)[C@H]1CC=CC[C@@H](C)Oc2ccccc2C(=O)N(C)[C@H](Cc2ccccc2)C(=O)N1 (mixture of isomers)
 : 0.2	1.2	1.3
> O=C(O)C[C@H]1CC[C@H](NC(=O)CCN2CCCCC2)[C@H](CO)O1
 : -4.3	6.0	1.7
> CCCC(=O)Nc1ccc2c(c1)OC[C@H](C)N(S(=O)(=O)c1cn(C)cn1)C[C@@H](C)[C@@H](OC)CN(C)C2=O
 : -7.1	4.5	-2.6
> N#C[C@@H]1[C@@H](c2ccccc2C2=CCCC2)[C@H](CO)N1C(=O)NC1CCCCC1
 : .	.	?
> COc1ccccc1CNC(=O)C[C@H]1CC[C@H]2[C@@H](COC[C@H](O)CN2Cc2ccc3c(c2)OCO3)O1
 : -3.2	-1.2	-4.5
> Cc1ccc(-c2ccc3c(c2)O[C@H](CN(C)Cc2ccccn2)[C@@H](C)CN([C@@H](C)CO)S3(=O)=O)cc1
 : 1.8	-2.3	-0.6
> O=C(c1ccc2c(c1)OCO2)N1CC(=O)N2[C@H](CO)[C@@H](c3ccc(C#CC4CCCC4)cc3)[C@@H]2C1
 : -6.8	-0.4	-7.1

Of the compounds above, these have a Cl atom:
Sequence of screens – DUX4 txn inh difference	DUX4 txn inh control	DUX4 txn inh
> O=C(C[C@H]1CC[C@H]2[C@@H](COC[C@H](O)CN2C(=O)Nc2ccc(Cl)c(Cl)c2)O1)NCc1ccncc1
 : -7.2	2.9	-4.3
> C[C@H](CO)N1C[C@H](C)[C@H](CN(C)S(=O)(=O)c2ccc(Cl)cc2)Oc2ccc(NC(=O)CCC(F)(F)F)cc2CC1=O
 : 2.3	-0.3	2.1

(more compounds)
Sequence of screens – DUX4 txn inh difference	DUX4 txn inh control	DUX4 txn inh
> COc1ccccc1CN1[C@@H]2CNC[C@H]1C2c1ccc(-c2ccncc2)cc1 (some centres not stated)
 : 16.1	-2.4	13.8
> O=C(CN1CCOCC1)N1CC2(C1)[C@H](c1ccccc1)[C@@H](CO)N2Cc1ccccc1
 : -2.5	8.2	5.6
> O=C(C[C@@H]1CC[C@@H]2[C@H](COC[C@@H](O)CN2C(=O)c2ccccc2)O1)N1CCOCC1
 : 0.5	-1.9	-1.4
> COC(=O)C[C@H]1C[C@@H]2c3cc(N(C)C)ccc3O[C@@H]2[C@H](CO)O1
 : 7.1	2.2	9.3
> C/C=C/c1ccc(C2[C@H]3CNC[C@@H]2N3Cc2cc(-c3ccccc3)on2)cc1 (some centres not stated)
 : 0.4	10.6	?
> C[C@@H]1CN([C@@H](C)CO)C(=O)CCCn2nncc2CO[C@H]1CN(C)S(=O)(=O)c1cccc(C#N)c1
 : -5.4	7.0	1.6
> CN1CCN(C(=O)[C@H]2[C@H](CO)[C@H]3Cn4c(ccc(-c5cncnc5)c4=O)[C@H]3N2CC2CCCC2)CC1
 : 1.3	-3.2	-1.9
> COCC(=O)Nc1ccc2c(c1)[C@@H]1C[C@H](CC(=O)N(C)C)O[C@@H](CO)[C@@H]1O2
 : 4.5	4.9	9.3
> CCCNC(=O)Nc1ccc2c(c1)OC[C@@H](C)N(C(=O)CC)C[C@H](C)[C@@H](OC)CN(C)C2=O
 : 0.9	4.4	5.3
> CN1C[C@@H]2[C@H](c3ccccc31)[C@@H](CO)N2Cc1ccccc1F
 : -3.8	3.8	0.0
> Cc1noc(C)c1S(=O)(=O)N(C)C[C@@H]1OCCCC[C@@H](C)Oc2ccc(NC(=O)c3ccccc3)cc2C(=O)N([C@H](C)CO)C[C@H]1C
 : 2.4	2.2	4.6
> O=C(NC1CCCC1)N1CC(=O)N2[C@H](C1)[C@@H](c1ccc(-c3cccnc3)cc1)[C@@H]2CO
 : 4.0	-0.6	3.4
> CCCC#Cc1ccc([C@H]2[C@@H](C#N)N(C(=O)CN3CCOCC3)[C@H]2CO)cc1
 : -1.6	-0.7	-2.2
> COc1ccccc1-c1cccc(-c2nc(C(=O)N3CCOCC3)cc3c2[C@H](CCO)N([S@@](=O)C(C)(C)C)C3)c1
 : -1.5	-0.4	-1.9
> O=C1N[C@H](c2ccccc2)COCc2cnnn2CC[C@@H]1Cc1ccc(-c2ccccc2)cc1
 : 4.0	-0.6	3.4
> OC[C@H]1[C@H](c2ccc(C#CC3(O)CCCC3)cc2)[C@@H]2CN(Cc3ccncc3)CCCCN12
 : 10.6	4.1	14.7
> O=C(c1ccc(F)cc1)N1CC(=O)N2[C@H](CO)[C@H](c3ccc(C#CCC4CCCC4)cc3)[C@@H]2C1
 : .	.	?
> COc1ccccc1CN(C)C[C@H]1OCc2cn(nn2)CCCC(=O)N([C@@H](C)CO)C[C@@H]1C
 : 1.6	-1.0	0.6
> CN(C)C(=O)[C@@H]1[C@@H](CO)[C@@H]2Cn3c(ccc(/C=C/c4ccccc4)c3=O)[C@@H]2N1C(=O)c1cccnc1
 : 2.3	3.3	5.6
> C[C@H]1CN([C@@H](C)CO)C(=O)c2cc(C#CCc3ccccc3)cnc2O[C@@H]1CN(C)CC1CCOCC1
 : 7.0	1.2	8.3
> O=C1[C@@H](Cc2ccc(F)cc2)CCn2cc(nn2)COC[C@H]2CCCN12
 : -2.2	-0.4	-2.6
> CC(C)(O)C#Cc1ccc([C@@H]2[C@@H](CO)N3CCCCN(C(=O)c4ccc(F)cc4)C[C@@H]23)cc1
 : 9.1	0.1	9.3
> CN1CCN(C(=O)C[C@@H]2C=C[C@@H](NC(=O)Cc3ccccn3)[C@H](CO)O2)CC1
 : 2.2	1.0	3.2
> CN1c2ccc(C#Cc3cccnc3)cc2[C@H]2[C@H](CCN2C(=O)C2CCOCC2)[C@@H]1CO
 : 34.7	-16.1	18.5
> Cn1cnc(CCNC(=O)C[C@H]2CC[C@@H]3[C@H](COC[C@H](O)CN3C(=O)Nc3ccc(C(F)(F)F)cc3)O2)c1
 : -4.9	2.6	-2.4
> CC(C)NC(=O)N1CC2(C1)[C@@H](c1ccccc1)[C@H](CO)N2C(=O)C1CCC1
 : -2.1	3.4	1.2
> C[C@@H]1CN([C@H](C)CO)C(=O)CCCn2cc(nn2)CO[C@H]1CN(C)C(=O)c1ccncc1
 : -7.1	9.6	2.5
> O=C(C[C@H]1CC[C@@H]2[C@H](COC[C@@H](O)CN2Cc2cccc(C(F)(F)F)c2)O1)NCCc1ccccc1
 : .	.	?
> COc1ccccc1NC(=O)N(C)C[C@@H]1OCc2cnnn2CCCC(=O)N([C@@H](C)CO)C[C@H]1C
 : 3.4	-0.7	2.7
> COc1ccc2c3c([nH]c2c1)[C@H](CO)N(C(=O)CN(C)C)CC31CN(Cc2ccccc2Cl)C1
 : .	.	?

(more compounds)
Sequence of screens – DUX4 txn inh difference	DUX4 txn inh control	DUX4 txn inh
> CC(=O)N1CC2(C1)[C@H](c1ccccc1)[C@@H](CO)N2CC1CCOCC1
 : 1.4	1.8	3.3
> Cc1noc(C)c1S(=O)(=O)Nc1ccc2c(c1)C(=O)N([C@@H](C)CO)C[C@@H](C)[C@H](CN(C)S(=O)(=O)c1ccc(F)cc1)OCCCC[C@@H](C)O2
 : 2.2	2.9	5.1
> CO[C@H]1CN(C)C(=O)c2cc(NS(=O)(=O)c3cn(C)cn3)ccc2OC[C@H](C)N(C)C[C@@H]1C
 : 8.3	-1.0	7.3
> CN1C(=O)c2cc(NC(=O)NCc3ccccc3)ccc2OC[C@@H]2O[C@@H](CC(=O)NCC3CCCCC3)CC[C@H]21
 : 0.1	3.7	3.8
> C[C@@H]1CN([C@H](C)CO)S(=O)(=O)c2ccc(C#C[C@@H](C)O)cc2O[C@@H]1CN(C)Cc1ccc(-c2ccccc2)cc1
 : -2.9	0.6	-2.3
> COc1ccc(NC(=O)Nc2ccc3c(c2)[C@H]2C[C@@H](CC(=O)NCC(F)(F)F)O[C@@H](CO)[C@H]2O3)cc1
 : 11.0	0.9	12.0
> C/C=C/c1ccc([C@H]2[C@@H](CO)N(C(C)=O)[C@@H]2CN(CCOC)C(C)=O)cc1
 : -3.2	2.7	-0.4
> CCC(=O)N1[C@H](CO)[C@H]2c3ccccc3N(S(=O)(=O)c3ccccc3)C[C@H]21
 : -6.1	5.3	-0.9
> COc1ccccc1-c1cnc2c(c1)C(=O)N([C@@H](C)CO)C[C@H](C)[C@@H](CN(C)Cc1cncnc1)O2
 : -3.2	5.2	2.0
> CNC[C@H]1Oc2c(NC(=O)c3ccc(-c4nccs4)cc3)cccc2C(=O)N([C@H](C)CO)C[C@@H]1C
 : 2.4	-1.2	1.2
> CO[C@H]1CN(C)C(=O)c2ccc(NC(=O)Nc3ccc(Cl)cc3)cc2OC[C@H](C)N(C(=O)Nc2c(C)noc2C)C[C@H]1C
 : 0.7	-4.1	-3.3
> O=C(C[C@@H]1CC[C@@H]2[C@H](COC[C@H](O)CN2C(=O)Nc2ccccc2)O1)NCCc1ccncc1
 : -2.0	7.0	5.0
> Cc1noc(C)c1S(=O)(=O)Nc1ccc2c(c1)C(=O)N([C@@H](C)CO)C[C@@H](C)[C@@H](CN(C)C(=O)Nc1cccc3ccccc13)OCCCC[C@@H](C)O2
 : 1.6	-2.2	-0.6
> COc1ccc(NC(=O)N2C[C@@H](O)COC[C@H]3O[C@@H](CC(=O)N4CCCCC4)CC[C@@H]32)cc1
 : 0.1	3.9	4.0

Already shown: entries from further up.
Sequence of screens – DUX4 txn inh difference	DUX4 txn inh control	DUX4 txn inh
> COc1ccc(NC(=O)Nc2ccc3c(c2)[C@H]2C[C@@H](CC(=O)NCC(F)(F)F)O[C@@H](CO)[C@H]2O3)cc1
 : 11.0	0.9	12.0
> C/C=C/c1ccc([C@H]2[C@@H](CO)N(C(C)=O)[C@@H]2CN(CCOC)C(C)=O)cc1
 : -3.2	2.7	-0.4

Screening results (PubChem BioAssay)

These rows are one share of the data; count on the stated rates, not on these rows.
